# Sfp PPTase inh – qHTS Assay for Inhibitors of Bacillus subtilis Sfp phosphopantetheinyl transferase (PPTase); 4'-phosphopantetheinyl transferase ffp (Bacillus subtilis), Q9F4F7; Biochemical Sfp PPTase activity, qHTS; Potency, µM, without a hit: max response, negative = inhibition, actives largely listed as inhibitors; 3.5% of 310,000 active; AID 1490, 2009; active means well fitted inhibition curve with a large enough effect; inconclusive means small, poorly fitted or top-dose-only effect, or another doubt; inactive means no such curve, though single readings can be large or run the other way;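 further: the enzyme is Sfp with the accession as filed and its product quenches rhodamine fluorescence; potency means the concentration at half of the fitted maximal effect; 0% = enzyme reaction without inhibitor and -100% = no enzyme wells; top concentration of the series not given in the record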
#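 Step 1, compound plus 15 nM Sfp-PPTase, 15 min, room temperature. Step 2, add rhodamine-CoA (5 uM) and BHQ-2-YbbR (12.5 uM). Step 3, read 525/598 nm fluorescence at 0 and 30 min.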
# Menin MLL FP FL – qHTS Assay for Inhibitors Targeting the Menin-MLL Interaction in MLL Related Leukemias: Competition With Fluorescein Labeled MLL-derived Peptide | AID 1766, 2009 | Fluorescence polarization, fluorescein-MLL peptide displacement from menin | 290,000 tested, under 10 active | FP activity change, % at 61.4 µM; inconclusive = falling polarisation curve, or a change in total fluorescence; inactive = total fluorescence flat and polarisation flat or rising; no compound was filed as active; the % refers to the polarisation; negative = inhibition;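 further: % of control where 0% means no effect; inhibitors lower the polarisation; unlabelled MLL peptide was the positive control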
# ClpP mod – qHTS Assay for Activators of ClpP; ATP-dependent Clp protease proteolytic subunit (Bacillus subtilis (strain 168)), P80244; purified B. subtilis ClpP, FRET peptide cleavage, 20 min; Potency, µM (doses to about 57.5 µM), for the others: top-dose activity change, negative = active; 1.9% of 340,000 active; active = well fitted falling curve with a large enough effect; inconclusive = small, poorly fitted or top-dose-only effect; inactive = no such curve, though single readings can be large or run the other way; further: potency means the concentration at half of the fitted maximal effect; the source files actives as falling curves though it sought activators and does not explain the sign; nearly all actives have a fitted effect of over 65% in size; many hits overshoot -100%
# Target sequence (P80244 whole entry, looked up): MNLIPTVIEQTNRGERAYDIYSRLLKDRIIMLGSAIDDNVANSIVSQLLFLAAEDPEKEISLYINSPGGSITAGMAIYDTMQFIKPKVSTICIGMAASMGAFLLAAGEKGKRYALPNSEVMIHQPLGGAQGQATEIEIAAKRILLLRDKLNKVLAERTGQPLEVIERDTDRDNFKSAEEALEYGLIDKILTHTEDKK
#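 Buffer: 100 mM Tris/HCl pH8, 100 mM KCl, 0.05% low protease BSA, 2.5% glycerol, 0.01% Tween-20. ClpP 10 microg/mL final; 20 min RT; delta FRET normalized to ADEP and DMSO controls.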
# TRPML1 inh – qHTS for Inhibitors of the Human Mucolipin Transient Receptor Potential 1 (TRPML1). TRPML1-inducible cells, Ca2+ dye fluorescence, FDSS; stronger effect = lower value; inhibition of EC80 agonist-evoked calcium signal. activity change, negative = inhibition, % (no concentration beside the values). 0.02% of 390,000 active. AID 624415, 2012; in the data active means activity change below about -50%; inconclusive means about -30% to -50%; inactive means above about -30%;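 further: stimulus is agonist 54-4 at its EC80 concentration; on the % scale 0 is the no-effect control and ±100 the full control effect; compound concentration not given in the record; the text of the record puts the active cut at -80%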
# Target sequence (Q9GZU1 whole entry, looked up): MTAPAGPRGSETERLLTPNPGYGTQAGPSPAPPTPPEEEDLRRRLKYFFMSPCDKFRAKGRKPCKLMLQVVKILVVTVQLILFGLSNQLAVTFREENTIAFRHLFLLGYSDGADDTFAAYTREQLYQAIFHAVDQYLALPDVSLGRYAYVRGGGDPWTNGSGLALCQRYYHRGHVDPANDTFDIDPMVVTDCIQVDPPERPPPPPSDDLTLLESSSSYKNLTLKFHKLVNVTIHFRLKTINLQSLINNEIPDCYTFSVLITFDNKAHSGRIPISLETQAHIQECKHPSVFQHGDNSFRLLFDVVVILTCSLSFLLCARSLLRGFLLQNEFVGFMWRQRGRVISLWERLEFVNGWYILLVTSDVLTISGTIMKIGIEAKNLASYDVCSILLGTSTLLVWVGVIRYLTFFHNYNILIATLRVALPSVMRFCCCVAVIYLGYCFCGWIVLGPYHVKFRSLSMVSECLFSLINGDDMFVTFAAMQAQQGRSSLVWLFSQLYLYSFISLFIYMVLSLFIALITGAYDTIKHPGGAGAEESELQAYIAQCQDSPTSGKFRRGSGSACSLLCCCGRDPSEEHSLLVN
#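 Tet-induced TRPML1-DL cells loaded with Ca8 no-wash calcium dye were read kinetically on FDSS. Compound addition was followed by EC80 agonist 54-4 (4 uM final); inhibition was read over 110 s.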
# TRPML1 ag – qHTS for Agonists of the Human Mucolipin Transient Receptor Potential 1 (TRPML1). TRPML1-expressing cells, Ca2+ dye fluorescence, FDSS; host cell line not named in the record; reference of the full effect not given here. Mucolipin-1 (Homo sapiens), Q9GZU1. activation, % (concentration not given with the values). AID 624414, 2012. 0.12% of 410,000 active; in the data active = activation above about 50%; inconclusive = about 30% to 50%; inactive = below about 30%; further: 0% is about no effect; the text of the record puts the active cut at 80%
#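 In this qHTS format, compounds were pin-transferred onto Ca8-dye-loaded TRPML1-DL cells induced with Tet overnight, and intracellular Ca2+ fluorescence was recorded kinetically for 110 s after a 10 s baseline. A subsequent 4uM final 54-4 (EC80) addition followed by a second 110 s read served as the antagonist phase.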
# PINK1 expr mod – A Quantitative High throughput Screen to Identify Chemical Modulators of PINK1 Expression | PINK1 immunofluorescence, high-content cytometry, 24 h | AID 624263, 2012 | Potency, µM (titrated, usually from 76.6 µM), inactives show at the highest dose activation (PINK1 increase), usual class: activators | 0.2% of 410,000 active; active = well fitted activation curve with a large enough effect; inconclusive = small, poorly fitted or top-dose-only effect; inactive = flat fitted curve, though single readings scatter; cell line not stated here;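 further: potency means the concentration at half of the fitted maximal effect; % of control where 0% means no effect; nearly all actives have a fitted effect of over 65% in size; a mitochondrial uncoupler was the plate control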
#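 Compound titrations (5 concentrations, 24 h) on a stable cell line; DMSO and CCCP controls. Endpoint: fixed-cell PINK1 immunofluorescence with mitochondrial, cell and nuclear markers, scanned by microplate cytometer.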
# TRPV1 potentiator – HTS Assay for Compounds that Act as Potentiators of the Vanilloid Receptor 1. Transient receptor potential cation channel subfamily V member 1 (Homo sapiens), Q8NER1. TRPV1-expressing cells, Fluo-8 calcium influx, capsaicin EC20 potentiation; host cell line not named in the record; control for the full effect not named in the record. potentiation, % at 8.33 µM. 0.02% of 320,000 active. AID 540277, 2011; active means potentiation above 80%; inconclusive means 30% to 80%; inactive means below 30%; further: 0% is about no effect
#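 TRPV1-expressing cells were cultured overnight at 35.5C and loaded with Fluo-8 calcium dye for 40 to 90 min at room temperature. After a 10 s baseline, compound was added and calcium influx was read kinetically for 3 min (ex 480/em 520 nm).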
# An asterisk follows results filed as active; ? = inconclusive; / = no result given; [ ] = another dose, or the depositor's remark.
SMILES,Sfp PPTase inh,Menin MLL FP FL,ClpP mod,TRPML1 inh,TRPML1 ag,PINK1 expr mod,TRPV1 potentiator
CC1(C)CC(NC(=O)C2CCC(=O)N(Cc3ccccc3F)C2)CC(C)(C)C1 (configuration not stated),10%,-0.4,1.4%,3,0.7,-0.1%,-13
C#CCOC(=O)c1cc(Cl)c(=O)n(Cc2ccc(Cl)cc2Cl)c1,-6%,2.7,4.0%,32,1.1,1.6%,4
O=S(=O)(Nc1cccc(-c2ccc(N3CCCCC3)nn2)c1)c1ccc(F)cc1F,/,/,-4.3%,-5,-0.8,0.4%,/
Brc1c(CSc2nncn2-c2ccccc2)nc2sccn12,-4%,2.4,-0.8%,24,0.2,5.8%[38.3 µM],-10
CCCC(=O)Nc1ccc(C(=O)NNC(=S)NC(=O)c2cccs2)cc1,7%,0.5,-1.7%,-11,1.1,1.3%[38.3 µM],/
Cc1c(C(=O)Nc2ccncc2)oc2ccccc12,-9%,-2.0,0.5%,-1,-0.2,-0.6%[38.3 µM],7
CCN(CC(=O)Nc1ccccc1OC)C(=O)c1ccccc1Sc1ccccc1C#N,/,/,0.7%,-10,-1.5,2.2%,-2
CCn1nc(C)c(NC(=O)/C=C/c2ccc(OC)c(COc3ccc(Br)cc3)c2)c1C,5%,1.0,1.9%,2,1.5,2.6%,?
Cc1ccc(NC(=O)Cn2c(-c3cncs3)nc3ccccc32)cc1Br,/,/,?,5,1.2,4.8%,/
CN(CC(=O)Nc1ccccc1C(F)(F)F)C(=O)c1cc([N+](=O)[O-])ccc1N1CCOCC1,11%,/,-0.9%,7,-0.6,-1.0%,12
CC(C)OC(=O)/C(C#N)=C/c1ccc(-c2ccc(SC(F)F)cc2)o1,-27%,?,32%,24,3.4,14%,5
COc1ccc(-c2cc(C(F)(F)F)nc(SCCC(=O)Nc3ccc(NC(C)=O)cc3)n2)cc1,/,/,-8.3%,7,1.4,-1.7%,/
CCC(C)NC(=O)C(NS(=O)(=O)c1cccc2nsnc12)c1ccccc1 (configuration not stated),15%,-2.2,0.4%,28,3.0,-1.0%,-4
O=C(COc1cccc(Br)c1)N/N=C1\CCCc2ccccc21,-12%,-3.7,/,?,0.6,0.4%,2
O=C(O)CN1C(=O)SC(Nc2ccccc2C(=O)O)C1=O (configuration not stated),?,13,?,17,-0.7,1.7%,0
N#Cc1c(SCC(N)=O)nc2c(c1-c1ccc(O)cc1)CCCC2,0%,3.3,-1.0%,22,1.3,5.9%[38.3 µM],1
O=S(=O)(N/N=C\c1cn(-c2ccccc2)nc1-c1ccccc1)c1ccccc1,12%,0.5,-1.0%,21,2.1,-1.9%[38.3 µM],15
Cc1cc(CC(=O)O)c2oc(-c3ccoc3)cc(=O)c2c1,/,/,-6.8%,13,0.9,0.2%,/
CCOc1ccc(NC(=O)N2CCN(c3nnc(C)c4c(C)n(-c5ccccc5)nc34)CC2)cc1,/,/,-4.8%,16,3.0,-0.6%,/
CC(NC(=O)OCc1ccccc1)C(=O)OCN1C(=O)c2ccccc2C1=O (configuration not stated),4%,4.0,-2.7%,-2,-0.9,0.2%,7

# Given with values under each structure: entries from further up
# Below each SMILES – Sfp PPTase inh	Menin MLL FP FL	ClpP mod	TRPML1 inh	TRPML1 ag	PINK1 expr mod	TRPV1 potentiator
CCOc1ccc(NC(=O)N2CCN(c3nnc(C)c4c(C)n(-c5ccccc5)nc34)CC2)cc1
    /	/	-4.8%	16	3.0	-0.6%	/
CC(NC(=O)OCc1ccccc1)C(=O)OCN1C(=O)c2ccccc2C1=O (configuration not stated)
    4%	4.0	-2.7%	-2	-0.9	0.2%	7

# Next section.
SMILES,Sfp PPTase inh,Menin MLL FP FL,ClpP mod,TRPML1 inh,TRPML1 ag,PINK1 expr mod,TRPV1 potentiator
CCCCOc1cccc(C(=O)Nc2cc(NC(=O)c3ccco3)ccc2OC)c1,/,/,-19%,1,0.2,0.8%,/
COC(=O)c1ccc(C(=O)OC)c(NC(=O)c2cnn3c(C(F)F)cc(-c4ccccc4)nc23)c1,/,/,-0.1%,-7,-0.1,0.2%,/
COc1ccc(S(=O)(=O)N2CCNCC2)cc1,5%,-0.3,/,-18,0.1,-0.4%,-10
COCCCn1c(=O)c2sccc2n2c(CCCC(=O)NCC3CCCO3)nnc12 (configuration not stated),16%,0.1,-19%,-12,-0.8,1.6%,0
Cc1ccccc1C1c2[nH]c3ccccc3c2C[C@H]2C(=O)N(C3CC3)CC(=O)N12 (some centres not stated),5%,-3.0,/,-3,0.3,3.3%,5
COc1ccc(CN2CCN(C(=O)CC(C)C)CC2)c2ccccc12,?,7.3,2.1%,-1,-0.8,0.1%,-2
N=c1n(CCN2CCCCC2)c2ccccc2n1CC(O)COc1ccc(Cl)cc1Cl (configuration not stated),/,/,-2.5%,0,0.7,-1.2%,/
CCOC(=O)c1[nH]c(C)c(/C=N/O)c1C,-18%,1.0,-2.6%,4,1.1,-1.0%,5
COc1ccc(-c2[nH]ncc2/C=C(\C#N)C(=O)NC2CC2)cc1,2%,-1.4,-0.1%,4,0.2,1.0%,-12
COc1ccc(Cn2nnnc2C(c2cccs2)N2CCSCC2)cc1 (configuration not stated),17%,0.7,1.4%,4,0.3,-5.7%[38.3 µM],-9
O=C(OCc1ccccc1F)c1cc([N+](=O)[O-])ccc1N1CCOCC1,/,/,-30%,-4,0.4,4.5%,-20
Cc1ccc(CNc2cnccn2)s1,2%,6.7,-11%,-9,1.4,0.2%,-4
C=CCn1c(=S)[nH]c2scc(-c3ccco3)c2c1=O,20µM*,?,/,-13,0.6,0.4%,2
CSC1=N/C(=C\c2cccnc2)C(=O)N1c1ccccc1,-8%,2.7,-0.6%,23,-0.8,1.6%,-20
Cc1ccc(OC(C)C(=O)N(C)c2ccccc2)c([N+](=O)[O-])n1 (configuration not stated),/,/,2.6%,-21,-0.2,-0.5%,0
Cc1ccc(C2CC2/C(=N/O)c2ccc(F)cc2)cc1 (configuration not stated),3%,-3.2,/,-3,2.8,8.6%,18
Cc1cc2nc(C(C)(C)C)c(Cc3cccc(Cl)c3)n2c(C)c1Br,/,/,-3.2%,/,0.5,16%,/
CN1C[C@@H](CO)O[C@@H](n2cnc3c(N4CCN(CCO)CC4)ncnc32)C1,/,/,-1.8%,/,-0.7,0.7%,/
S=C(NC1CCCCC1)N1CCN(Cc2ccccc2)CC1,4%,-1.4,-0.4%,3,0.9,0.5%,-18
N#Cc1ccc(-c2ccc(F)cc2)nc1Sc1ccc(F)cc1,16%,-3.9,-0.9%,-14,-0.1,13%,-26
COC(=O)COc1cccc2c(=O)n(CC(=O)NCCc3ccccc3)ccc12,12%,-0.3,?,3,-0.4,1.1%,17
CCSc1nnc(NC(=O)CCN2C(=O)C3CCCCC3C2=O)s1 (configuration not stated),/,/,-2.8%,-11,-0.2,-1.2%,-4
O=C(NC(Cc1c[nH]c2ccccc12)C(=O)N1CCOCC1)c1cccs1 (configuration not stated),9%,4.3,/,-5,0.7,4.8%,-23
CCN(CC)C(=O)Cn1cc(S(=O)(=O)CC(=O)Nc2ccc(C(N)=O)cc2)c2ccccc21,5%,-3.6,-0.2%,11,-0.3,0.9%,8
O=C(Nc1nc2ccc(Cl)cc2s1)c1ccc(N2CCCCC2)c([N+](=O)[O-])c1,9%,0.4,2.3%,-7,-0.2,-0.5%,15
CC(=O)C1=C(C)NC(=S)NC1c1cccc([N+](=O)[O-])c1 (configuration not stated),6%,-0.5,/,32,-0.9,0.9%,-1
Cc1occc1-c1nnc(-c2cc([N+](=O)[O-])cc([N+](=O)[O-])c2)o1,?,-1.2,/,6,0.7,-0.1%,-14
COC(=O)c1ccc(OCC(O)CN(CCO)CC(O)Cn2ccc3ccccc32)cc1 (configuration not stated),8%,2.3,/,-3,1.3,-0.9%,-17
Cn1cc(S(=O)(=O)N2CCCC2)cc1C(=O)Nc1cccc(C(F)(F)F)c1,8%,/,/,3,1.5,6.7%,17
NC(=O)CC(NC(=O)c1ccccc1)c1ccc(N2CCC(N3CCCC3)CC2)c([N+](=O)[O-])c1 (configuration not stated),8%,4.1,1.0%,8,-0.6,1.4%,-10
CN1CCN(C(=O)c2cc3c(c(-c4cccc(-c5cccnc5)c4)n2)[C@H](CCO)N(C(=O)CC2CC2)C3)CC1,/,/,2.2%,/,-0.3,0.5%,/
COc1ccc(-c2nnc(SCC(=O)NCCc3ccc(OC)c(OC)c3)nc2-c2ccc(OC)cc2)cc1,/,/,-1.5%,7,0.0,3.2%,/
O=C(Nc1ccc(N2CCCC2)cc1)c1ccc(Br)o1,?,2.5,0.7%,-2,0.2,-3.1%[38.3 µM],-7
CCCC(=O)Nc1nc(C)c(-c2csc(Nc3ccccc3C)n2)s1,20µM*,14,-3.1%,13,-0.2,2.0%,1
CC(=O)c1ccc(N(C(=O)CNC(=O)c2ccco2)C(C(=O)NC2CCCC2)c2ccco2)cc1 (configuration not stated),-6%,-1.8,-1.5%,12,-1.6,0.6%,8
COc1ccc2nc(C)cc(N3CCN(S(=O)(=O)c4ccccc4F)CC3)c2c1,/,/,-4.2%,-2,0.5,0.6%,5
Cc1nc(NC(=O)c2cc(-n3cnnc3)ccc2Cl)ccc1Br,-6%,8.3,-0.7%,-9,-0.3,-1.8%[38.3 µM],19
O=C(CCc1nc(-c2ccc(F)cc2)no1)Nc1cccc(C(=O)NC2CC2)c1,/,/,-2.2%,8,1.4,4.7%,/
c1cc2c(cc1Nc1nc(-c3ccc4c(c3)OCO4)cs1)OCCO2,-83%,-0.8,0.2%,4,1.3,-1.1%,7
O=C(CCl)Nc1sccc1C(=O)c1ccccc1,/,/,/,-5,3.0,-1.4%,/
CS(=O)(=O)N(C(=O)NC(=O)NC1CCS(=O)(=O)C1)C1CCCCC1 (configuration not stated),15%,1.1,-15%,-4,0.5,/,0
CCCCn1c(O)c2n(c1=O)Cc1ccccc1N=C2c1ccc(OC)cc1,/,/,1.8%,/,-0.7,2.9%,/
